# Insulin prom inh = TRM-6 insulin promoter activity inhibition. 0.9% of 130,000 active. inhibition, % at 2 µM. TRM-6 cells (human fetal islet line), insulin promoter-eGFP reporter, imaging; reporter expression induced with tamoxifen. AID 1273;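 active means inhibition above the mean plus 3 SD, with well images judged a real hit on visual review, cut at about 60% in these data, passing the limit was not always enough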
# RGS16-Gao = RGS16-Galphao interaction regulator (human) | bead-based flow cytometry RGS16-Galphao binding, fluorescence; actives lie on both sides | binding response (% of control), % at 10 µM | O15492+P09471 | 0.38% of 220,000 active;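 active means below 25% or above 175%, edge rows of some plates excepted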;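 further: Galphao activated by GDP with aluminum fluoride before binding; 100% = wells without compound and 0% = beads without RGS; some results beyond the cut were filed as inactive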
# Target sequence (O15492 whole entry, looked up): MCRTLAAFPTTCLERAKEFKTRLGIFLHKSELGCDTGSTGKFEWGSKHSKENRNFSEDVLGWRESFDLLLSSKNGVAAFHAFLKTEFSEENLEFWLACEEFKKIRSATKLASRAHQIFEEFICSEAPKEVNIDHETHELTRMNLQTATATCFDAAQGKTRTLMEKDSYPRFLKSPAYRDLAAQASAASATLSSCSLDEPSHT
# Target sequence (P09471 whole entry, looked up): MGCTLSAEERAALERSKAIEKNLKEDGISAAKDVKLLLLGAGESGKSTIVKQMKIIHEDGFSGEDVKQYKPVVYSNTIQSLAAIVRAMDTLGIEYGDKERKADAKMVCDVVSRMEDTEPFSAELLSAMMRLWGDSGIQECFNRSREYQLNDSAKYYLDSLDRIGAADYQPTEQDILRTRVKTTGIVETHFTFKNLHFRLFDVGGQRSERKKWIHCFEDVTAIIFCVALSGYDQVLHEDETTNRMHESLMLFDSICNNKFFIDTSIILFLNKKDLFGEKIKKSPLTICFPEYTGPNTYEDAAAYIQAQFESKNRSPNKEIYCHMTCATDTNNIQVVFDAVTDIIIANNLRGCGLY
# GALR2 agonist = agonists of human galanin receptor 2 (GALR2) | 0.48% of 140,000 active | GALR2-expressing cells, agonist activation read-out | O43603 | activation, %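 (tested at 5 µM)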;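 active means above mean plus 3 SD of all compounds, about 5% in these data, not always enough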;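 further: 0% = vehicle buffer wells and 100% = reference agonist at full effect; tested in CHO reporter cells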
# Target sequence (O43603 whole entry, looked up): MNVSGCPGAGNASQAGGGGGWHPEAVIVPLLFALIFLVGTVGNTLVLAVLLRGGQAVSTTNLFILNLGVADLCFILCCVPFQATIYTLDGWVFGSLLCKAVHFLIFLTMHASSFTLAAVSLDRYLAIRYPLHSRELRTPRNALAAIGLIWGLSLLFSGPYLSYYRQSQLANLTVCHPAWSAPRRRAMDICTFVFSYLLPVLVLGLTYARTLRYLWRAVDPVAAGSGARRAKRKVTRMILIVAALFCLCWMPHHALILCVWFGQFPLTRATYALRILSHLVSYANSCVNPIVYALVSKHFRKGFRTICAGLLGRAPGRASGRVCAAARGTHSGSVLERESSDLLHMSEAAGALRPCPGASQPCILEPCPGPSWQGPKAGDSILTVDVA
# PKD1 inh = inhibitors of human PKD1 kinase. Q15139. PKD1 kinase fluorescence polarization assay. inhibition, %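 (about 10 µM by stock and volumes)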. 0.056% of 200,000 active. AID 797;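 active means inhibition of 50% or more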;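 further: controls were vehicle for no effect and a reference inhibitor for full effect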
# HSV replic up = increases HSV replication in cells | 0.005% of 220,000 active | AID 1956 | HSV replication augmentation in cells, fold increase | maximum fold increase;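 active means peak rise of 1.5-fold or more in the series; tested in PC3 cells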;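 further: first round at 10 µM; read as green reporter fluorescence; hits show the peak of a series up to 25 µM; 1 = signal of infected wells without compound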
# Insulin prom inh cell count = also measured in Insulin prom inh; calls as there; normalized cell count, %; measured here: cell count, toxicity; reference of the scale not given here;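 cells exposed to compound for 48 h; stained nuclei by imaging scaled within each plate; lower means fewer cells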
# HSV replic up primary fold = also measured in HSV replic up; calls as there; fold increase; compound at 10 µM; measured here: primary screen fold increase 10 uM; tested in PC3 cells;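 GFP signal in the first replicate; 1 = infected wells without compound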
# * marks the source's active call; other numbers are inactive results; i = inactive; . = not tested or not shown.
# A first look (5 entries):
SMILES,Insulin prom inh,Insulin prom inh cell count,RGS16-Gao,GALR2 agonist,PKD1 inh,HSV replic up,HSV replic up primary fold
O=C1CCCN1CN(C(=O)c1ccc2c(c1)OCO2)c1cccc(Cl)c1,.,.,100,-3.0,5,i,0.81
Cc1ccccc1NC(=O)CSC1=NCCN1,.,.,105,-0.2,1,i,0.87
CCCCN1C2=NCCCN2c2ccccc21,-20,164,105,-1.7,4,i,0.96
Cc1ccc(C(=O)CSc2nnnn2C(C)C)c(C)c1,13,160,77,0.9,-1,i,0.97
Cc1nc2ccc(NC(=O)COc3ccccc3F)cc2s1,18,114,75,.,0,i,0.85

# The list itself, previewed entries included:
SMILES,Insulin prom inh,Insulin prom inh cell count,RGS16-Gao,GALR2 agonist,PKD1 inh,HSV replic up,HSV replic up primary fold
O=C1CCCN1CN(C(=O)c1ccc2c(c1)OCO2)c1cccc(Cl)c1,.,.,100,-3.0,5,i,0.81
Cc1ccccc1NC(=O)CSC1=NCCN1,.,.,105,-0.2,1,i,0.87
CCCCN1C2=NCCCN2c2ccccc21,-20,164,105,-1.7,4,i,0.96
Cc1ccc(C(=O)CSc2nnnn2C(C)C)c(C)c1,13,160,77,0.9,-1,i,0.97
Cc1nc2ccc(NC(=O)COc3ccccc3F)cc2s1,18,114,75,.,0,i,0.85
O=C(CSc1ncccc1C(=O)O)c1ccccc1F,.,.,101,.,-6,i,1
COc1ccc(O[C@H]2C=C[C@@H](c3ccccc3)O[C@@H]2CO/N=C(\C)CCN2CCc3nc(-c4ccccc4)c(-c4ccccc4)cc3C2)cc1,-10,103,101,-1.1,-8,.,.
COc1ccccc1Nc1nc(-c2sc(NC(=O)c3ccc([N+](=O)[O-])cc3)nc2C)cs1,-3,127,105,-1.8,-4,.,.
Cc1ccsc1CN(C)Cc1nc(C2CC2)no1,.,.,104,.,4,i,0.97
CC1CN(CCOc2ccc(Cl)cc2Cl)CC(C)O1 (centres undefined),-33,98,108,-1.4,-7,i,0.96
Cc1c(C(=O)N2CCC(C(N)=O)CC2)sc(N)c1C#N,.,.,81,-1.7,-9,.,.
CC1N(O)C(C)(C)C(c2ccccc2)=[N+]1[O-] (centres undefined),-15,113,77,-1.2,-2,i,0.91
O=C(O)Cc1csc(NC(=O)CSc2nnnn2-c2ccc(O)cc2)n1,.,.,96,.,.,i,1
O=[N+]([O-])c1cccc(CN(CCO)Cc2ccccc2)c1,.,.,106,0.0,7,i,0.98
Cc1c(C)c2ccc(OS(C)(=O)=O)cc2oc1=O,0,121,102,-1.1,9,i,1
CC(NC(=O)Cc1ccccc1)c1cc2c(cc1Br)OCCCO2 (centres undefined),-92,63,93,-0.3,-6,.,.
CC(=O)N(c1nc(CCl)cs1)c1ccc(C)cc1C,.,.,109,.,7,i,0.93
CC(C)CC(OC(=O)c1cccs1)C(=O)NCc1ccco1 (centres undefined),-22,107,107,-1.8,3,i,0.78
NNC(=O)C=C1CCN(c2ncc(C(F)(F)F)cc2Cl)CC1,-11,110,99,-2.5,-4,i,1
Nn1c(-c2cccc(Br)c2)n[nH]c1=S,.,.,102,-3.0,-1,i,1.1
CCn1c(=O)cc(SCC(=O)NCCCN2CCC(C)CC2)c2ccccc21,.,.,106,.,2,i,0.98
CCN(C(=O)COc1ccccc1)c1nnc(-c2cccnc2)s1,-8,69,99,-0.8,-7,i,1
Cc1cc(C)cc(OCC(=O)Nc2ccc(F)cc2)c1,-26,84,99,-1.4,-3,.,.
CCCCOC(=O)c1ccc(NC(=S)NC(=O)c2c(Cl)cnn2CC)cc1,.,.,103,0.0,-2,i,0.97
CCOC(=O)c1nnn(-c2nc(OC)nc(N(C)C)n2)c1-c1ccccc1,-21,64,100,-0.4,-4,i,0.96
CCNC(=O)NC(=O)C(C)OC(=O)C1CCN(S(=O)(=O)c2ccccc2F)CC1 (centres undefined),25,88,111,-1.3,-23,i,1
C=CCSc1n[nH]c(-c2ccc(OC)cc2)n1,22,96,108,-0.2,-2,i,1.1
Cc1cc(C(=O)N/N=C/c2ccco2)n[nH]1,.,.,103,.,3,i,1
Cc1cc(C)c2oc(-c3ccc(C)c(NC(=S)NC(=O)c4cccs4)c3)nc2c1,50,145,86,-2.5,4,i,1
COc1ccc(-c2nnc(N(C)C(=O)c3cccnc3)s2)cc1,.,.,105,0.3,4,i,1.1
C=CCNC(=S)Nc1ccc(N(C)C)cc1,.,.,98,.,.,i,0.99
COC(=O)C(C)Sc1nc2c(c(=O)n(C)c(=O)n2C)n1CCC(C)C (centres undefined),-14,88,100,-0.3,-3,i,1.1
CC(C)Cn1c(SCC(=O)N2CCN(C(=O)c3ccco3)CC2)nc2ccccc2c1=O,18,111,106,.,-1,i,0.94
C=C1c2ccccc2NC(=O)N1c1ccc(OC)cc1,.,.,103,.,-10,i,0.97
Cn1c2ccccc2c2ncn(CCC3=CCCCC3)c(=O)c21,0,67,101,-1.9,-5,i,0.76
CCOc1ccc(NC(=O)CSc2nnc(C3CC3)n2N)cc1,.,.,103,-4.2,3,i,0.94
COc1ccc(C2CC(=O)c3c(ccc4ccccc34)N2)cc1OC (centres undefined),.,.,110,-2.3,-1,.,.
CC(C)n1c(Nn2cnnc2)nc2ccccc21,-8,109,104,-3.3,1,i,0.88
C=CCc1c(C)[nH]c(=S)c(C#N)c1C,-18,93,74,-0.6,-12,i,1
COC(=O)c1cccc(NC(=S)N2CCOCC2)c1,.,.,112,.,-4,i,0.93
CC(=O)c1cccc(NC(=S)NC(=O)c2ccc(C)cc2)c1,.,.,77,.,9,i,0.94
C=CCC1Cc2c(Br)cccc2C(CC=C)N1 (centres undefined),.,.,103,.,-1,i,1.1
O=C(O)CCC(=O)N1N=C(c2c(-c3ccccc3)c3cc(Cl)ccc3[nH]c2=O)CC1c1cccs1 (centres undefined),55,87,95,0.5,-16,i,0.96
O=C(NCc1ccc2c(c1)OCO2)c1ccc2snnc2c1,56,102,103,-1.8,-4,i,1.1
O=C(NCc1ccccc1)c1cc[n+](CC(=O)c2cccs2)cc1,.,.,109,.,.,i,1.1
O=C1C=C(NCCNc2c(F)c(F)c(CO)c(F)c2F)CCC1,-14,78,101,0.5,-8,i,0.99
O=C(CS(=O)CC(=O)N(CC(=O)NC1CCCC1)C1CCCCC1)Nc1ccc(F)cc1 (centres undefined),-38,120,108,0.7,-2,i,1.3
CC1CCC(C(=O)NC(C(=O)NCc2ccccn2)C(C)C)CC1 (centres undefined),29,113,98,-2.0,1,i,0.8
CCOC(=O)c1ccc2nc3c(cc2c1)CCS3,.,.,99,-1.2,-3,i,0.92
CCCCOc1ccc(NC(=O)CSCC(=O)OCC)cc1,21,99,98,2.2,4,i,0.95
COc1ccc(-c2cn3ccc4ccccc4c3n2)cc1,77*,73*,41,-0.2,8,i,0.83
O=C(NCc1ccncc1)c1cn(-c2ccccc2)nc1-c1cccnc1,8,152,105,.,-3,i,1
COc1ccccc1N1CCN(C(=O)c2ccc3c(=O)n(Cc4ccco4)c(=S)[nH]c3c2)CC1,.,.,99,0.4,2,i,0.79
CCOc1ccc(-c2nc(CSCC(=O)N3CCN(c4cccc(OC)c4)CC3)c(C)o2)cc1,.,.,110,-1.2,-5,i,0.99
C=CCNC(=O)c1ccc2nccnc2c1,3,96,86,-0.5,-3,i,0.89
CCC(C)C(NC(N)=O)C(=O)Nc1ccc(C)c(Cl)c1 (centres undefined),19,74,112,0.0,-17,i,0.84
Cc1cc(C#N)c(C)n1-c1cc(C(F)(F)F)ccc1N1CCOCC1,21,95,102,-3.0,-2,i,1.1
S=c1[nH]nc(-c2ccc3ccccc3n2)o1,-8,119,106,-1.8,-10,i,0.97
CCC(C)(C)NC(=O)C(c1ccncc1)N(C(=O)c1sc(C)nc1C)c1ccc(C)cc1 (centres undefined),.,.,85,.,0,i,0.96
CCc1nc2c(c(=O)c3ccccc3n2C)c(=O)n1C1CCCCCC1,-55,116,91,0.1,7,i,0.74

# Some of the entries above, set out differently.
# Values run as follows: Insulin prom inh	Insulin prom inh cell count	RGS16-Gao	GALR2 agonist	PKD1 inh	HSV replic up	HSV replic up primary fold
COc1ccccc1N1CCN(C(=O)c2ccc3c(=O)n(Cc4ccco4)c(=S)[nH]c3c2)CC1
 : .	.	99	0.4	2	i	0.79
CCOc1ccc(-c2nc(CSCC(=O)N3CCN(c4cccc(OC)c4)CC3)c(C)o2)cc1
 : .	.	110	-1.2	-5	i	0.99

# (listing goes on)
SMILES,Insulin prom inh,Insulin prom inh cell count,RGS16-Gao,GALR2 agonist,PKD1 inh,HSV replic up,HSV replic up primary fold
Cc1cccc(OCC(=O)Nc2ccc(N3CCN(C(=O)c4ccccc4)CC3)cc2)c1,-3,122,111,-1.2,2,i,1
Cn1c(=O)c2[nH]c(-c3ccccc3O)nc2n(C)c1=O,12,88,103,-2.5,1,.,.
CCCOc1ccc(C2C(C(=O)OC)=CN(CCOC)C=C2C(=O)OC)cc1,17,100,102,6.9*,-4,i,0.88
O=C(Nc1ccc(Cl)cc1C(=O)NCCN1CCOCC1)c1ccc(Cl)cc1Cl,-50,121,91,-0.7,-3,i,0.9
CCOC(=O)CCc1c(C)c2c(C)nn(-c3ccccc3)c2[nH]c1=O,.,.,102,-2.2,-11,i,0.94
COCCNC(=O)COc1ccc(Br)cc1Cl,7,81,105,-2.0,2,i,1.1
CN(Cc1ccccc1)C(=O)c1c[nH]c2ccc(S(=O)(=O)N3CCOCC3)cc2c1=O,14,103,113,-3.4,-9,i,0.8
Cc1ccc(S(=O)(=O)N(c2nc(N(C)C)nc(N(C)C)n2)n2cnnc2)cc1,.,.,97,-1.1,-10,i,0.99
Cc1ccc(NC(=O)CSCC(=O)NCCc2ccccn2)c(C)c1,.,.,100,.,-6,i,0.91
O=C(Nc1ccc(Oc2cccnc2)cc1)c1cccc([N+](=O)[O-])c1,-6,92,59,-1.2,-15,i,1.1
O=C(O)CCC(=O)Nc1cccc(C(=O)Nc2ccc(Br)cc2)c1,44,120,95,.,-5,i,0.93
Cc1nn(C)cc1C(C(=O)NC1CCCCC1)N(C(=O)Cc1cccs1)c1ccc(F)cc1 (centres undefined),-52,83,92,-0.1,-10,i,1.1
COc1cc(NC(=O)c2cc(-n3cnnc3)ccc2Cl)cc(OC)c1,-354,52,71,-2.8,-2,i,0.99
FC(F)(F)c1cccc(NCc2n[nH]c(=S)n2C2CCCCC2)c1,-27,144,106,.,2,i,0.94
C[C@H](NC(=O)c1nc[nH]c1C(=O)N[C@@H](CCCCNC(=O)OC(C)(C)C)C(=O)OC(C)(C)C)C(=O)OC(C)(C)C,.,.,103,.,.,i,0.88
CCOC(=O)C1(CCc2ccccc2)CCN(C(=O)[C@@H]2C[C@@H](C)NC(=S)N2)CC1,.,.,96,.,-5,i,0.97
O=C1CCC(=O)N1OCCOc1ccc2c(c1)CCC2,31,109,100,-2.1,-8,i,0.89
Nn1c(SCC(=O)Nc2ccc(S(N)(=O)=O)cc2)nnc1C(F)(F)F,.,.,108,.,.,i,0.99
O=C(N/N=C/C(Cl)=C/c1ccc([N+](=O)[O-])cc1)C(=O)Nc1ccccc1C(=O)O,.,.,98,.,.,i,0.76
Cc1ccc2nc(NC(=O)CCn3cccc3)sc2c1,.,.,96,.,-6,i,0.97
O=C(Nc1ccccn1)C1CCN(S(=O)(=O)c2cccs2)CC1,.,.,102,-1.8,-4,i,0.97
CC(C)NC(=O)C(=O)NCCCN1CCOCC1,21,86,140,.,-4,i,1.1
N#Cc1ccc(C2=NC(C(F)(F)F)(C(F)(F)F)c3c(n(Cc4ccco4)c(=O)[nH]c3=O)N2)cc1,-3,269,96,-2.1,-4,i,0.74
COc1ccc(N2Cc3ccccc3C2=NC(=O)c2cncc(Br)c2)cc1,.,.,102,.,1,i,0.94
CCC(=NCCc1ccccc1)C1=C(O)CCC1=O,.,.,105,-1.0,-2,i,1
Cc1c(NC(=O)CCC(=O)N2CCOCC2)c(=O)n(-c2ccccc2)n1C,-84,101,87,-2.9,-2,i,0.99
COc1ccc(OCCNC(=O)c2ccccc2OCC(=O)N2CCCCC2)cc1,-135,100,100,-1.6,-1,i,1.1
Cc1cc2cc(C)c3nnc(SCC(=O)N4CCCc5ccccc54)n3c2cc1C,18,95,87,-1.1,1,.,.
CC(=O)c1ccc(S(=O)(=O)N2CCN(CC#N)CC2)cc1,.,.,102,.,.,i,0.97
CC(=O)c1coc2ccc(OCCN3CCCCC3)cc12,-21,128,104,-1.5,-8,i,0.72
CCOc1ccc(N=C2SC(C(=O)O)CC(=O)N2C)cc1 (centres undefined),.,.,93,-1.8,12,i,0.83
Cc1nn(C(=O)c2ccco2)c(C)c1Sc1ccccc1,3,81,110,-0.9,6,i,0.82

# Compound activity: PubChem BioAssay, several laboratories
